ALR inh: inhibitors of human sulfhydryl oxidase ALR. inhibition, % (concentration not given with the values). 3.8% of 290,000 active. purified ALR, DTT oxidation, H2O2 HRP-luminol luminescence. P55789;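 active means mean and each replicate at 75% or more; inconclusive means only one of the two met; inactive means neither met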;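 further: stock transfer was 7.5 nL into about 7.5 µL; 0% = neutral wells and 100% = wells with inactivated enzyme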
Target sequence (P55789 whole entry, looked up): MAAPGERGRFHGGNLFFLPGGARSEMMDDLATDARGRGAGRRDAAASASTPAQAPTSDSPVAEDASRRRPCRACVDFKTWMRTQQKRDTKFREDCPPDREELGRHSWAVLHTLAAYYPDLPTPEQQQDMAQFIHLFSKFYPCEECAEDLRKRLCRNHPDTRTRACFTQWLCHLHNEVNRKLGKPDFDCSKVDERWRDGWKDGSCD
Ecoli growth: E. coli growth inhibition; 0.21% of 330,000 active; AID 1053175; Escherichia coli growth, OD600, 23 h; hits give low values; OD600 absorbance (test concentration not listed);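 active means OD600 absorbance below the run mean of sample wells minus 3.6 SD, in any replicate, cut at about 0.56 in these data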;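 further: stock transfer was 300 nL into about 60 µL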
Vif TR-FRET: HIV-1 Vif–A3G interaction blockers – biochemical, TR-FRET, GST-Vif 1-94, biotin-A3G peptide, dose response retest, primary screen (AID 1117319). TR-FRET GST-Vif / biotin-A3G peptide binding; higher % means a stronger effect; test concentration not given here; strong numbers were not always called active. inhibition, %; hits with a dose series show IC50 in µM. 0.57% of 260,000 active;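 active means above the screen mean plus three standard deviations and confirmed in dose response; inconclusive means results disagree or hit not tested in dose response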;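 further: Vif residues 1-94 fused to GST binding biotinylated APOBEC3G peptide 110-148; 0% = full assay without inhibitor and 100% = GST in place of GST-Vif; retest series ran down from 100 µM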
MLL AF4-AF9 inh: inhibitors of human MLL-AF4/AF9 interaction; P42568; AlphaScreen, biotin-AF4 peptide binding to FLAG-AF9; inhibition, % at 10 µM; 0.47% of 350,000 active;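 active means every replicate reaching a set inhibition limit, whatever the replicate mean, cut at about 25% in these data; inconclusive means mean inhibition reaches that limit but some replicates miss it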;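 further: 0% = plate neutral control median and 100% = total signal loss; the record names both 10 and 1 µM as test concentration; the first replicate is given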
Ecoli rRNA inh: inhibitors of bacterial rRNA selective over humanized ribosomes | E. coli WT GFP vs humanized-ribosome RFP mutants, fluorescence, 24 h; hits give low values; DMSO median 0, no signal -100 | GFP signal change (wild-type ribosome), % (test concentration not listed) | 1.6% of 350,000 active;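 active means significant combined selectivity score with lowered wild-type GFP, culture density cut under 30%, mutant RFP and density less affected; inactive means any of these conditions unmet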; further: one replicate is shown; some compounds called inactive have numbers as strong as hits
FGF22 binding: shifts melting point of recombinant human FGF22. Q9HCT0. recombinant FGF22 thermal shift, SYPRO orange fluorescence; percent of sucrose octasulfate shift, DMSO zero. calls only at 9.99 µM. 1.5% of 340,000 active. AID 651658;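 active means melting point raised past a set limit in the mean and every replicate; inconclusive means no clear call; three in four hits are not shown here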
Target sequence (Q9HCT0 whole entry, looked up): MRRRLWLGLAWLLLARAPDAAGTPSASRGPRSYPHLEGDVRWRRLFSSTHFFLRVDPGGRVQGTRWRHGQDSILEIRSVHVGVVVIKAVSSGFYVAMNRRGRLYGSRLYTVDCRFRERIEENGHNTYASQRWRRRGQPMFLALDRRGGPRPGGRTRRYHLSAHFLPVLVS
HNF4A DNA FP: change in binding of human HNF4 alpha to DNA. AID 1224865. P41235. HNF4a-FITC DNA binding, fluorescence polarization, 1 h. activity change, % at 10 µM. 0.3% of 360,000 active; in the data active means activity change above about 30%, passing the limit was not always enough;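 further: controls were the assay level and a saturating level of protein; the project sought stronger binding though the title names inhibitors; some compounds called inactive have numbers as strong as hits; positive values seem to mean higher polarization but the record does not say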
Target sequence (P41235 whole entry, looked up): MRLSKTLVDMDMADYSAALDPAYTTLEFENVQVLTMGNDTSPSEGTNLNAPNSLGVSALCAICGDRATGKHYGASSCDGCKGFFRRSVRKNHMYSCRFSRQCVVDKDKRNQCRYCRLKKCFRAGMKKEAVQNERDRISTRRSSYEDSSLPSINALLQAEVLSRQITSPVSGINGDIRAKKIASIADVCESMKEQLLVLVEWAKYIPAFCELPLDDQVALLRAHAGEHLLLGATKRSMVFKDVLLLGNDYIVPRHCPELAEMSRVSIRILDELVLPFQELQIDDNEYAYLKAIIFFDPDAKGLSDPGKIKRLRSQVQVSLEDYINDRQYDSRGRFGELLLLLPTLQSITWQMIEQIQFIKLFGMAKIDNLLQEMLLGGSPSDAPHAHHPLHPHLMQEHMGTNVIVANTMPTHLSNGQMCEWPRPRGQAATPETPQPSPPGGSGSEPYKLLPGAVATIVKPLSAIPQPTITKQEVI
Ecoli rRNA inh OD600: also measured in Ecoli rRNA inh; calls as there; OD600 change, %; measured here: OD600 growth;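 optical density of the mix in the first replicate; 0 = DMSO median and -100 = no signal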
Ecoli rRNA inh RFP: recorded beside Ecoli rRNA inh, whose call it bears; RFP signal change, %; measured here: RFP humanized mutant strains;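 first replicate; 0 = DMSO median and -100 = no signal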
An asterisk follows results filed as active; i = inactive; ? = inconclusive; / = no result given. These rows are one share of the data (hit frequency here may not be typical).

SMILES	ALR inh	Ecoli growth	Vif TR-FRET	MLL AF4-AF9 inh	Ecoli rRNA inh	Ecoli rRNA inh OD600	Ecoli rRNA inh RFP	FGF22 binding	HNF4A DNA FP
COc1ccc(/C=C2\SC(=S)N(CCC(=O)N3CCOCC3)C2=O)cc1OC	/	/	0%	-0.3	10	17	0.5	i	0.9
O=C(NC[C@@H]1[C@H](c2ccccc2)[C@@H](CO)N1Cc1cccnc1)c1ccccn1	/	/	/	-0.3	-3	-3	-0.6	i	/
O=C(O)CCN1C(=O)c2ccc(NC(=O)CSCc3ccccc3)cc2C1=O	70	0.65	11%	2.2	/	/	/	i	1.6
Cc1cc(Nc2ccc(N(C)C)cc2)n2ncnc2n1	98*	0.68	/	0.6	13	11	4.7	i	-1.5
N#Cc1nc(-c2cccs2)oc1NCCN1CCOCC1	25	0.69	-2%	/	/	/	/	/	-4.1
CCC(=O)N1CC2(CCN(Cc3ccncc3)CC2)c2c(n(C)c3cc(OC)ccc23)[C@H]1CO	/	/	/	-1.0	1	12	0.9	i	/
C[C@@H]1CCCCO[C@H](CN(C)C(=O)c2ccccc2)[C@@H](C)CN([C@@H](C)CO)C(=O)c2cc(NC(=O)Nc3cccc4ccccc34)ccc2O1	/	/	/	2.4	-2	10	4.3	i	/
C=CCn1c(SCCOc2ccc(OC)cc2)nnc1C(NC(=O)c1ccc(OC)cc1)C(C)C (stereo not drawn)	-1	0.76	-2%	/	/	/	/	/	-0.1
CCNC(=O)C[C@H]1CC[C@H]2[C@@H](COC[C@H](O)CN2C(=O)c2ccccn2)O1	/	/	/	-2.7	8	8	0.2	i	/
O=C(O)c1cnn2c(C(F)F)cc(C(F)F)nc12	-3	0.68	32%	/	/	/	/	/	-1.6
O=C(NCCCN1CCOCC1)c1ccc2c(c1)N(Cc1ccccc1F)C(=O)c1ccccc1S2=O (stereo not drawn)	-18	0.66	/	1.1	7	1	-2.5	i	-1.4
O=C(O)CCCC(=O)N1CCc2cc(S(=O)(=O)N3CCc4ccccc43)ccc21	-21	0.65	4%	6.2	-6	-19	-19	i	-0.1
Cc1noc(C)c1NC(=O)Nc1cccc2c1O[C@H](CN(C)Cc1ccc(C(=O)O)cc1)[C@H](C)CN([C@@H](C)CO)C2=O	/	/	/	-0.5	3	0	1.7	i	/
Fc1ccc(Cc2nnc(-c3cccs3)o2)cc1	/	0.75	25%	-5.2	4	10	-2.0	i	-0.3
COc1cccc(C(=O)N2CCCC(Nc3ccc(C)c(C)c3)C2)c1 (stereo not drawn)	98*	0.72	-8%	6.4	4	-2	4.8	i	-3.0
O=C1OC(Oc2ccc(Br)cc2)(c2ccccc2)c2ccccc21 (stereo not drawn)	/	0.71	7%	-5.9	7	7	-1.7	i	-2.0
O=C(c1ccc(S(=O)(=O)c2ccc(F)cc2)c([N+](=O)[O-])c1)N1CCCCCC1	96*	0.65	/	12	-13	-12	-0.5	i	4.4
O=C(NCc1cccnc1)c1ccc(S(=O)(=O)Nc2ccccc2)cc1	-2	0.68	0%	-0.5	3	-3	-0.8	i	1.8
O=C(Nc1nc2ccc(S(=O)(=O)N3CCCC3)cc2s1)C1CCCO1 (stereo not drawn)	-12	0.69	-2%	/	/	/	/	/	-5.0
COc1ccc(OCC(=O)Nc2cc(-c3nn(C)c(=O)c4ccccc34)ccc2OC)cc1	/	0.75	-97%	/	/	/	/	/	2.1
COc1ccc(CC2(CO)CCN(CC3=CC[C@H]4C[C@@H]3C4(C)C)CC2)cc1	/	0.68	8%	6.7	-8	3	-0.3	i	4.4
COc1ccc(Cc2c(C(C)(C)C)nc3cc(C)c(Br)c(C)n23)c(C)c1	/	/	/	1.3	-2	-7	-7.0	i	5.0
C[C@@H]1CN([C@@H](C)CO)C(=O)c2cccc(NC(=O)Nc3ccc4c(c3)OCO4)c2O[C@H]1CN(C)C	/	/	/	0.9	-3	0	-2.2	i	/
COCCNC(=O)CCC1CCN(C/C=C/c2ccccc2OC)CC1	/	0.72	/	6.2	11	9	1.3	i	0.5
CCOc1cc(C2C(C(=O)OC(C)C)=C(C)NC3=C2C(=O)CCC3)cc([N+](=O)[O-])c1O (stereo not drawn)	-5	0.7	18%	-0.8	15	13	4.4	i	-1.8
NC(=O)C(CC(=O)O)NC(=O)[C@@H]1CCCNc2c(I)cc([N+](=O)[O-])cc2C(=O)N[C@@H](CO)C(=O)N[C@@H](Cc2ccc(O)cc2)C(=O)N1 (stereo partly drawn)	74	/	28%	/	/	/	/	/	2.6
Cc1ccc2nc(SCC(=O)NCc3ccc(S(N)(=O)=O)cc3)[nH]c2c1	-9	0.69	/	-1.0	-1	0	-2.2	i	2.5
Cc1ccc(S(=O)(=O)N2CCCN(S(=O)(=O)c3ccc(C)cc3)CC2)cc1	0	0.68	?	/	/	/	/	/	-0.7
CC(C)CNC(=O)C(=O)NCCCN1CCOCC1	/	0.76	/	-2.3	3	0	-2.2	i	-9.6
CO[C@@H]1CN(C)C(=O)c2cc(NC(C)=O)ccc2OC[C@H](C)N(C(=O)CN2CCOCC2)C[C@@H]1C	/	/	/	-0.7	1	3	-1.2	i	/
O=C(C[C@@H]1CC[C@H](NC(=O)NC2CCCCC2)[C@@H](CO)O1)NCc1ccc(Cl)cc1	/	/	/	-1.1	0	2	-3.1	i	/
COCCN(C(=O)COC(=O)c1cc2c(s1)CCC2)c1c(N)n(Cc2ccccc2)c(=O)[nH]c1=O	1	/	/	-13	-6	1	2.5	i	-61
COc1ccc2cc(C)c3nnc(SCC(=O)Nc4nc(-c5ccccc5)cs4)n3c2c1	/	0.7	32%	/	/	/	/	/	3.4
COCCCNc1nc2c(c(=O)[nH]c(=O)n2C)n1CC(O)COc1cccc(C)c1 (stereo not drawn)	9	0.7	6%	/	/	/	/	/	-1.5
Cc1onc(-c2ccccc2Cl)c1C(=O)NCCn1ccc2ccccc21	/	0.77	13%	/	/	/	/	/	-0.4
CN(C)Cc1c(C(=O)N/N=C/c2cccs2)nnn1-c1nonc1N	-2	/	/	-14	3	3	0.4	i	1.1
CCCNC(=O)N(C)C[C@@H]1Oc2cc(C#Cc3cccc(F)c3)ccc2S(=O)(=O)N([C@H](C)CO)C[C@@H]1C	/	/	/	-0.2	-18	-41	13	i	/
CCOC(=O)c1nn(-c2ccccc2)c(=O)cc1OCC(=O)Nc1cccc(OC)c1	/	0.73	4%	-1.1	-7	3	-2.2	i	-1.3
Cc1cc(C)c(NC(=O)CSc2nc(=O)n(CCN3CCOCC3)c3c2CCCC3)c(C)c1	12	0.71	1%	-1.9	7	8	-2.3	i	0.3
CCC1CCCCN1c1nc2c(C=O)c(C)nn2c2ccccc12 (stereo not drawn)	2	0.64	/	/	/	/	/	/	1.2

Reformatted: entries from further up
NC(=O)C(CC(=O)O)NC(=O)[C@@H]1CCCNc2c(I)cc([N+](=O)[O-])cc2C(=O)N[C@@H](CO)C(=O)N[C@@H](Cc2ccc(O)cc2)C(=O)N1 (stereo partly drawn)
  ALR inh = 74
  Ecoli growth = /
  Vif TR-FRET = 28%
  MLL AF4-AF9 inh = /
  Ecoli rRNA inh = /
  Ecoli rRNA inh OD600 = /
  Ecoli rRNA inh RFP = /
  FGF22 binding = /
  HNF4A DNA FP = 2.6
COCCNC(=O)CCC1CCN(C/C=C/c2ccccc2OC)CC1
  ALR inh = /
  Ecoli growth = 0.72
  Vif TR-FRET = /
  MLL AF4-AF9 inh = 6.2
  Ecoli rRNA inh = 11
  Ecoli rRNA inh OD600 = 9
  Ecoli rRNA inh RFP = 1.3
  FGF22 binding = i
  HNF4A DNA FP = 0.5
Cc1ccc(S(=O)(=O)N2CCCN(S(=O)(=O)c3ccc(C)cc3)CC2)cc1
  ALR inh = 0
  Ecoli growth = 0.68
  Vif TR-FRET = ?
  MLL AF4-AF9 inh = /
  Ecoli rRNA inh = /
  Ecoli rRNA inh OD600 = /
  Ecoli rRNA inh RFP = /
  FGF22 binding = /
  HNF4A DNA FP = -0.7
CCOc1cc(C2C(C(=O)OC(C)C)=C(C)NC3=C2C(=O)CCC3)cc([N+](=O)[O-])c1O (stereo not drawn)
  ALR inh = -5
  Ecoli growth = 0.7
  Vif TR-FRET = 18%
  MLL AF4-AF9 inh = -0.8
  Ecoli rRNA inh = 15
  Ecoli rRNA inh OD600 = 13
  Ecoli rRNA inh RFP = 4.4
  FGF22 binding = i
  HNF4A DNA FP = -1.8

Back to the main list with the 5 entries that preceded the break.
SMILES	ALR inh	Ecoli growth	Vif TR-FRET	MLL AF4-AF9 inh	Ecoli rRNA inh	Ecoli rRNA inh OD600	Ecoli rRNA inh RFP	FGF22 binding	HNF4A DNA FP
CN(C)Cc1c(C(=O)N/N=C/c2cccs2)nnn1-c1nonc1N	-2	/	/	-14	3	3	0.4	i	1.1
CCCNC(=O)N(C)C[C@@H]1Oc2cc(C#Cc3cccc(F)c3)ccc2S(=O)(=O)N([C@H](C)CO)C[C@@H]1C	/	/	/	-0.2	-18	-41	13	i	/
CCOC(=O)c1nn(-c2ccccc2)c(=O)cc1OCC(=O)Nc1cccc(OC)c1	/	0.73	4%	-1.1	-7	3	-2.2	i	-1.3
Cc1cc(C)c(NC(=O)CSc2nc(=O)n(CCN3CCOCC3)c3c2CCCC3)c(C)c1	12	0.71	1%	-1.9	7	8	-2.3	i	0.3
CCC1CCCCN1c1nc2c(C=O)c(C)nn2c2ccccc12 (stereo not drawn)	2	0.64	/	/	/	/	/	/	1.2
CCCC(=O)Nc1ccc2c(c1)C(=O)N(C)C[C@H](OC)[C@H](C)CN(C)[C@@H](C)CO2	/	/	/	0.8	2	2	-0.1	i	/
CN1C(C(=O)Nc2ccc(C(=O)O)cc2)=C(O)c2ccccc2S1(=O)=O	22	0.7	/	-0.2	-18	-36	-2.6	/	2.1
Cc1ccc(-c2cnc3c(c2)C(=O)N([C@H](C)CO)C[C@@H](C)[C@H](CN(C)Cc2ccccc2F)O3)cc1	/	/	/	3.7	-5	-8	3.5	i	/
COC1OC(O)C(NC(=O)C(F)(F)F)CC1O (stereo not drawn)	/	/	/	0.5	12	14	-0.1	i	-2.5
CNC(=S)N1CCN(C(=O)c2ccco2)CC1	/	0.7	/	3.7	11	12	-1.1	i	-1.8
N#Cc1ccc(-c2nc3ccc(Cl)cn3c2Cc2cccc(F)c2)cc1	/	/	/	-1.5	-9	-36	-5.8	i	3.5
CC1CCCCC1NC(=O)/C(C#N)=C/c1ccc(F)c(F)c1 (stereo not drawn)	8	/	1%	-0.3	12	16	0.4	i	-3.6
COc1ccc(/C=C/C(=O)N(C)Cc2cccs2)cc1S(=O)(=O)N1CCOCC1	-6	0.66	7%	0.5	-9	-10	-0.3	i	-0.1
O=C(OCc1nc2ccccc2s1)C1CCN(S(=O)(=O)c2cccs2)CC1	-4	0.74	-2%	/	/	/	/	/	-0.6
CCNC(=O)C[C@H]1CC[C@H]2[C@H](COc3ccc(NC(=O)Nc4ccc(Cl)cc4)cc3C(=O)N2C)O1	/	/	/	-3.4	1	4	-1.4	i	/
COc1ccc(-c2c(-c3ccccc3)c(C(=O)C(=O)NCCCN(C)C)n3ccc4cc(OC)c(OC)cc4c23)cc1OC	-15	0.64	8%	38*	-7	-2	14	i	4.7
Cc1cc(C(=O)OCC(=O)c2c(N)n(C)c(=O)n(C)c2=O)c(C)o1	3	0.78	-6%	/	/	/	/	/	-2.2
O=C(NCC1CCCO1)c1cc2ccccc2oc1=O (stereo not drawn)	-2	0.67	84%	-0.3	8	8	3.6	i	0.7
